Screens as filed in PubChem.
HPGD block = inhibitors of human 15-hydroxyprostaglandin dehydrogenase (HPGD). P15428. purified HPGD, NADH fluorescence kinetic, PGE2 substrate. Potency, µM, for inactives: at the top dose activity change, negative = inhibition, most hits filed as inhibitors. hit rate 4.3% among 150,000; active = well fitted inhibition curve with a large enough effect (not every such curve was filed as active); inconclusive = small, poorly fitted or top-dose-only effect, or another doubt; inactive = no such curve, though single readings can be large or run the other way;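 also: top concentration of the series not given in the record; plate controls included wells without enzyme; inactives centre near -10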
Target sequence (P15428 whole entry, looked up): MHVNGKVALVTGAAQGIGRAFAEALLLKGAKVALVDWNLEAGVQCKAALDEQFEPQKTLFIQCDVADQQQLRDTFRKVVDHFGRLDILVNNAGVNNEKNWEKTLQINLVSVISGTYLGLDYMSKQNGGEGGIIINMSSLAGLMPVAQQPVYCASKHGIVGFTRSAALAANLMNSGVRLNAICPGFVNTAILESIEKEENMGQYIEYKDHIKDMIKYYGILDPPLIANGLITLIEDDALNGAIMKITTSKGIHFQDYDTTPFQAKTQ
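NADH formation kinetics: reaction with 30 uM PGE2 and 1 mM NAD+ (final), 20 nM enzyme, Tris-HCl pH 8 with Tween 20, after 15 min compound preincubation at room temperature. Fluorescence change, last versus first of five reads.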
Active calls of the source: *; ? = inconclusive. % is scaled to controls: 0 for no effect and ±100 for the full control effect; potency is read from the fitted curve at half-maximal effect. Only part of the results is shown; the hit share may differ from the screen's.

SMILES	HPGD block
O=C(COC(=O)c1cc(-c2cccs2)nc2ccccc12)NCc1ccco1	?
Cc1ccc2c(c1)C1(SCCS1)C(=O)N2	1%
CCCCOc1ccc(C(=O)N2CCCC2C(=O)O)cc1 (stereo unspecified)	-18%
N#CCCNC(=O)Cn1c(COc2ccc(Cl)cc2)nc2ccccc21	-2%
COc1ccc(C(=O)Nc2ccccc2C(=O)N/N=C/c2cccc3ccccc23)cc1	?
O=C(/C=C/c1ccccc1Cl)N(Cc1ccc(Cl)cc1)C1CCS(=O)(=O)C1 (stereo unspecified)	-4%
COc1ccc(CC(=O)c2ccc(O)cc2O)cc1OC	-10%
CCOC(=O)C1=NN(C(=O)c2ccc(OC)cc2)C(O)(c2ccc(Cl)cc2)C1 (stereo unspecified)	-9%
CCOc1ccc(OCC)c(S(=O)(=O)NCc2cccnc2)c1	-11%
COc1ccc(NC(=O)C2CCCN(S(=O)(=O)c3cccc4nonc34)C2)c(OC)c1 (stereo unspecified)	-22%
O=C(c1nsnc1-c1ccccc1O)N1CCCCC1	0%
Cc1ccc(/C=N/n2c(COc3ccccc3)n[nH]c2=S)s1	2.2µM*
COc1ccc(OCc2nc(C#N)c(N3CCN(c4ccc(OC)cc4)CC3)o2)cc1	-19%
O=C(CC(Nc1ccc(Cl)cc1)C(=O)O)c1ccccc1 (stereo unspecified)	-24%
Cn1c(=O)oc2cc(S(=O)(=O)N3CCN(c4ccc(F)cc4)CC3)ccc21	-8%
CCCCCCSc1nnc2[nH]c(=O)cc(N)n12	11µM*
Cc1ccc(C2CC(C(F)(F)F)n3nc(C(=O)NCC4CCCO4)cc3N2)cc1 (stereo unspecified)	-9%
Cc1ccc(-n2c(=O)c3sccc3n(CC(=O)NCc3ccco3)c2=O)cc1F	-16%
CCn1c(-c2cc(OC)ccc2OC)csc1=Nc1c(C)n(C)n(-c2ccccc2)c1=O	-6%
Cc1noc(C)c1CSc1nnc2ccc3ccccc3n12	-3%
CC(=O)Nc1ccc(NC(=O)C(C)OC(=O)c2ccc(OCc3c(C)noc3C)cc2)cc1 (stereo unspecified)	-14%
CC1CC(=O)N(CC(=O)NCc2ccco2)c2ccccc2S1 (stereo unspecified)	-4%
COc1ccc(NC(=O)C2CCN(S(=O)(=O)c3ccc(C)cc3)CC2)cc1OC	-5%
O=C1CC(NCCN2CCOCC2)C(=O)N1Cc1ccc(N2CCCC2=O)cc1 (stereo unspecified)	-12%

Reprinted from the part before: five compounds, then new ones.
SMILES	HPGD block
Cc1noc(C)c1CSc1nnc2ccc3ccccc3n12	-3%
CC(=O)Nc1ccc(NC(=O)C(C)OC(=O)c2ccc(OCc3c(C)noc3C)cc2)cc1 (stereo unspecified)	-14%
CC1CC(=O)N(CC(=O)NCc2ccco2)c2ccccc2S1 (stereo unspecified)	-4%
COc1ccc(NC(=O)C2CCN(S(=O)(=O)c3ccc(C)cc3)CC2)cc1OC	-5%
O=C1CC(NCCN2CCOCC2)C(=O)N1Cc1ccc(N2CCCC2=O)cc1 (stereo unspecified)	-12%
O=C(c1ccccc1)c1ncc(C(F)(F)F)cc1Cl	32µM*
CC(=O)Nc1ccc(Nc2c3c4c(cccc4n(C)c2=O)C(=O)c2ccccc2-3)cc1	-23%
CC(=O)OCC(=O)C1CCC2C3CCC4=CC(=O)CC[C@@]4(C)C3CC[C@]12C (stereo partly specified)	-1%
CCOC(=O)c1sc(NC(=O)CSc2nc3c(c(=O)n2-c2ccccc2)SCC3)c(C(=O)OCC)c1C	-5%
Cc1cccc(NC(=S)NCCc2c[nH]c3ccccc23)c1	-16%
C=CCN(C)CCCNC(=O)/C=N/O	-4%
O=C(/C=C/c1cnc2ccccc2n1)NC1CCCCCC1	-23%
CCn1c(SCCC(C)C)nnc1-c1c[nH]c2ccccc12	-10%
CCOC(=O)N1CCN(c2c(N3CCN(c4ccc(OC)cc4)CC3)c(=O)c2=O)CC1	-16%
COc1ccc(C(=O)Nn2cnnc2)cc1	-24%
C/C(=N\OCC(=O)Nn1c(=O)[nH]c2ccccc2c1=O)c1ccccc1	-25%
Cc1cc(C)cc(-n2nnnc2-c2cn(C)nc2C(F)(F)F)c1	0%
N#CCCCCn1c(-c2cncs2)nc2ccccc21	-24%
C=CCN1C(=O)C2C(C(=O)NCc3ccccc3)C3(C)C=CC2(O3)C1C(=O)NC(C)(C)C (stereo unspecified)	-12%
O=C(CSc1nc2scc(-c3ccco3)c2c(=O)n1-c1ccccc1)N1CCOCC1	-13%
Cc1cc(C)n(-c2nc3ccccc3nc2N2CCC(C)CC2)n1	-2%
CCOC(=O)Cc1csc(/N=C/c2c(O)n(-c3ccccc3C(F)(F)F)c(=O)c3ccccc23)n1	-30%
COC(=O)c1c(N)nc(C)n1-c1ccc(OC)cc1	-3%
O=C(Nc1nc(-c2ccc(F)c(F)c2)cs1)c1cc([N+](=O)[O-])ccc1N1CCOCC1	-4%
Cc1ccccc1NC(=O)CSCCO	?
COc1c(-c2coc3cc4c(cc3c2=O)CC(O)C(C)(C)O4)ccc2c1C=CC(C)(C)O2 (stereo unspecified)	16µM*
C/C(=C\c1ccccc1)C(=O)Nc1nc2ccc([N+](=O)[O-])cc2s1	-7%
CCN(CC)c1ccc(NC(=O)CN2CCN(c3nc(C)cc(C)n3)CC2)cc1	?
COc1ccc(/C=N/OCC(=O)NC(c2ccccc2)c2ccccc2)cc1OC	-12%
O=C1CS/C(=N\c2ccccn2)N1C1CCCCC1	-8%
C=CCNc1nc2c(c(=O)[nH]c(=O)n2C)n1CCCCC	-9%
Cc1ccc(Sc2ccc(C(=O)NC(C)C)cc2[N+](=O)[O-])cc1	-5%
O[C@H](COc1ccccc1)CN1CCCCC1	-1%
CCCOc1ccc(N2C(=O)CC(N(Cc3ccc(S(N)(=O)=O)cc3)C(=O)CC)C2=O)cc1 (stereo unspecified)	1%
CCOc1cc(S(=O)(=O)N(CC)CC)ccc1Br	-10%
COc1ccc(C(=O)NCc2ccc(-c3nc4ccccc4s3)cc2)cc1	-12%
CNC(=O)c1ccccc1S(=O)c1ccccc1C#N (stereo unspecified)	0%
Cc1nn(-c2ccc(Cl)cc2)c2sc(C(=O)N3CCN(C(=O)c4ccco4)CC3)cc12	-13%
CCOC(=O)N1CCC(=NNC(=O)c2ccccc2F)CC1	-8%
Cc1ccc(NC(=O)c2ccccc2OCC(=O)c2ccc(F)cc2)cc1	3%
O=C1CSC(=S)N1c1cccnc1	-11%

Taken from the results shown for reference:
SMILES	HPGD block
O=C1CS/C(=N\c2ccccn2)N1C1CCCCC1	-8%
C=CCNc1nc2c(c(=O)[nH]c(=O)n2C)n1CCCCC	-9%

Next part:
SMILES	HPGD block
O=C(OCc1cc(=O)n2cc(Br)ccc2n1)C1COc2ccccc2O1 (stereo unspecified)	-12%
Cc1nc2cc(NC(=O)NCCC3=CCCCC3)ccc2o1	-3%
C/C(CC(=O)Nc1ccc(Cl)c(Cl)c1)=N\NC(N)=S	-1%
Cc1oc(-c2cccc(Cl)c2)nc1CN1CCCC(C(=O)NCCCN2CCOCC2)C1 (stereo unspecified)	-8%
COCCOC(=O)c1[nH]c2c(c1C)C(=O)CC(c1ccco1)C2 (stereo unspecified)	-11%
CCCCC(=O)Nc1ccc(NC(=O)CCCC)nc1	-11%
Cc1ccccc1CS(=O)(=O)c1cnc2ccccc2n1	-13%
CCN(Cc1nc2cc(OC)c(OC)cc2c(=O)[nH]1)C(=O)c1ccc(S(=O)(=O)N(C)C)cc1	-10%
CCN1CCN(CCn2c(=S)[nH]c3cc4c(cc3c2=O)OCO4)CC1	-10%
Cc1ccc(C2(C(F)(F)F)N=C3Sc4cc(C)cc(C)c4N3C(=O)N2)cc1 (stereo unspecified)	-9%
Cc1ccc(-c2nc(C3CCCN(S(=O)(=O)c4ccc(C(F)(F)F)cc4)C3)no2)cc1 (stereo unspecified)	-10%
CCCOc1ccc(C2/C(=C(/O)c3ccc(F)cc3)C(=O)C(=O)N2CCCN(C)C)cc1 (stereo unspecified)	-19%

The list goes on; it opens with the 5 that closed the last part.
SMILES	HPGD block
CCN(Cc1nc2cc(OC)c(OC)cc2c(=O)[nH]1)C(=O)c1ccc(S(=O)(=O)N(C)C)cc1	-10%
CCN1CCN(CCn2c(=S)[nH]c3cc4c(cc3c2=O)OCO4)CC1	-10%
Cc1ccc(C2(C(F)(F)F)N=C3Sc4cc(C)cc(C)c4N3C(=O)N2)cc1 (stereo unspecified)	-9%
Cc1ccc(-c2nc(C3CCCN(S(=O)(=O)c4ccc(C(F)(F)F)cc4)C3)no2)cc1 (stereo unspecified)	-10%
CCCOc1ccc(C2/C(=C(/O)c3ccc(F)cc3)C(=O)C(=O)N2CCCN(C)C)cc1 (stereo unspecified)	-19%
CCC(CC)NC(=O)CON=C1c2ccccc2-c2ccccc21	7.9µM*
CCC(C)c1ccc(NC(=O)C2CCN(c3ncccn3)CC2)cc1 (stereo unspecified)	-13%
CN1/C(=C\C(=O)c2ccco2)C(C)(C)c2ccccc21	-22%
CCOCCSc1nc2c(c(=O)[nH]c(=O)n2C)n1CCCc1ccccc1	-17%
CC/C(=N\NC(=O)c1c(-c2ccccc2)noc1C)c1ccc(C)o1	-15%
CC(C)C(NC(=O)c1ccc(Cl)cc1)C(=O)O (stereo unspecified)	-9%
Cn1cnnc1SCCC(=O)Nc1ccc(Cl)cc1	-4%
CC12COC3(C(=O)Nc4ccc(F)cc4)CC1CCC32C (stereo unspecified)	-3%
CCN(c1ccccc1)S(=O)(=O)c1ccc(Cl)c(C(=O)OCC(=O)c2[nH]c(C)c(C(C)=O)c2C)c1	-9%
COC(=O)CNC(=O)C(C)NC(=O)CNC(=O)OCc1ccccc1 (stereo unspecified)	-6%
CC(C)(C)NC(=S)Nc1ccc(Br)cc1	-6%
O=C(CCC1CCCC1)N1CCN(C(=O)C2CC2)CC1	-2%
COc1cc2c(cc1OC)CN(c1ccc([N+](=O)[O-])cc1Cl)CC2	-13%
Nc1nnc(Cc2ccc(Cl)cc2Cl)s1	-8%
O=C(O)/C(Cc1ccc([N+](=O)[O-])cc1)=N/O	-7%
O=C(c1ccccc1)N1CCN(Cc2cccc(Oc3ccccc3)c2)CC1	-12%
Nc1nncn1C(=O)c1cccs1	-9%
COc1ccccc1N1CCN(C(CNS(=O)(=O)c2cccs2)c2cccnc2)CC1 (stereo unspecified)	-9%
O=C(NCc1ccco1)C1CCN(C(=O)Cc2ccccc2)CC1	-10%
Cc1nc(NC2CCCCC2)c2nc(-c3ccccc3)n(CCN3CCCCC3)c2n1	?
COc1ccc(/C=N/Nc2ccc(C(F)(F)F)cc2[N+](=O)[O-])cc1O	3%
Cc1ccc(CNC(=O)CN2CCC(C(N)=O)CC2)cc1	-16%
COc1ccc(N2CCCCn3c2nc2c3c(=O)n(C)c(=O)n2C)cc1	-3%
CSc1cc(C)nc(N(C)C(C)=O)n1	-9%
CC(C)Oc1ccc(C(=O)NC2CCS(=O)(=O)C2)cc1 (stereo unspecified)	-16%
CCOC(=O)C(C)N1N=C(/C=C/c2ccc(C)cc2)CCC1=O (stereo unspecified)	-10%
CCOC(=O)c1ccc(Nc2ccc([N+](=O)[O-])cn2)cc1	-12%
COc1cc(C(=O)Nc2nnc(C)s2)cc(OC)c1OC	-3%
CCCCC(=O)NCCNc1nc2c(c(=O)n(C)c(=O)n2C)n1Cc1ccccc1	-6%
CCOC(=O)CSc1nc2ccc(Nc3nc(N4CCOCC4)nc(N4CCOCC4)n3)cc2s1	?
COc1ccc(N2C(=O)CC2(C#N)c2ccc(OCc3ccccc3)cc2)cc1 (stereo unspecified)	-16%
COc1ccc(-c2cc(CNC(=O)CN3CCN(C)CC3)on2)cc1	-11%
Cc1ccc(S(=O)(=O)N2CCN(c3ccc(C(=O)N4CCOCC4)cc3[N+](=O)[O-])CC2)cc1	-8%
O=c1c2ccccc2c(C=NCc2ccccn2)c(O)n1-c1ccccc1	?
COc1ccc(-c2nc(=S)c3c([nH]2)Oc2ccc(C)cc2C3)cc1O	-18%
Cc1ccc2nc3c(cc(C(=O)NCC4CCCO4)n3C)c(=O)n2c1 (stereo unspecified)	?
NC1=NCCN1CC(=O)O	0%
O=C1CN(C(=O)C2CCCC2)CCN1	0%
CN(C)C(=O)COC(=O)c1cccnc1Nc1ccccc1F	-15%
Cc1cc(O)cc(O)c1C(=O)Cc1cnn(-c2ccccc2)c1	-11%
Cc1ccccc1-n1c(C)cc(/C=C2\NC(=O)NC2=O)c1C	?
Cc1occc1C(=O)Nc1c(F)c(F)c(F)c(F)c1F	-9%
C=CCn1c(CCNC(=O)c2ccc(Cl)c(Cl)c2)nnc1SCCOc1ccc(OC)cc1	-23%
COc1ccc(C(=O)NC2CCN(C(=S)Nc3cccc(C)c3C)CC2)cc1	-15%
O=C(Nc1nnc(/N=C/c2ccco2)s1)c1ccc(F)cc1	-4%
CCN(CC)CCOc1ccc2nc(N(C)C)sc2c1	-11%
C=CCNC(=S)N/N=C(\C)c1cccc(OC)c1	-7%
Clc1ccc(-c2nnc(Sc3nc4ccccc4o3)c3ccccc23)cc1	-15%
Cc1occc1-c1nnc(SCC(=O)Nc2ccccc2N2CCCCC2)n1C	-9%
Cc1cc2ccccc2c(=O)n1CC(=O)NCC1COc2ccccc2O1 (stereo unspecified)	?
COc1ccc(OC)c(NC(=O)COC(=O)/C=C/c2ccc(Cl)cc2)c1	-2%
CSc1ccc(C(C(C(=O)c2cccs2)N2CCOCC2)N2CCOCC2)cc1 (stereo unspecified)	-20%
O=C(Cn1nc(-c2ccc(Cl)cc2)ccc1=O)NCCN1CCOCC1	-13%
O=C(NCc1ccco1)C1CC(=O)N(CCc2ccccc2)C1 (stereo unspecified)	-8%
CCOC(=O)c1cc(C(=O)c2cccs2)n2ccc(C(C)=O)cc12	-19%
CN(C)/C=C1/Nc2ccccc2C1=O	-25%
C=C(C)COc1ccc(-c2nc(N)nc(C)c2Oc2ccccc2OC)c(O)c1	-13%
N#Cc1ccc(NC(=O)COC(=O)CNC(=O)C2CCCCC2)cc1	-10%
CN(CC(=O)NCCN1CCN(c2ccccc2)CC1)S(=O)(=O)c1ccc2c(c1)CCC(=O)N2	-3%
O=C(NC1CCCc2ccccc21)C1CCCN(S(=O)(=O)c2cnc[nH]2)C1 (stereo unspecified)	-7%
